D2 potentiator = Beta-Arrestin HTS for Positive Allosteric Modulators of the Human D2 Dopamine Receptor: Potentiators; 360,000 tested, 0.23% active; D(2) dopamine receptor (Homo sapiens), P14416; potentiation, % (no concentration beside the values); DiscoveRx D2 beta-arrestin cells, luminescence, 90 min; 100% = 57 uM dopamine signal; active = potentiation of 50% or more; inconclusive = 30% to 50%; inactive = 30% or less;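 note: compound concentration not given in the record; tested on top of an EC20 dose of dopamine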
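PathHunter beta-arrestin assay in DiscoveRx D2 cells. Compounds were added with an EC20 of dopamine (50 nM final) for 90 min at 37 deg C. Luminescence was read 1 h after detection reagent, with 57 uM dopamine as the EC100 control.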
TRPV1 potentiator = HTS Assay for Compounds that Act as Potentiators of the Vanilloid Receptor 1; Transient receptor potential cation channel subfamily V member 1 (Homo sapiens), Q8NER1; TRPV1-expressing cells, Fluo-8 calcium influx, capsaicin EC20 potentiation; host cell line not named in the record; control for the full effect not named in the record; potentiation, % at 8.33 µM; 320,000 tested, 0.02% active; AID 540277, 2011; active means potentiation above 80%; inconclusive means 30% to 80%; inactive means below 30%; note: 0% is about no effect
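Cells expressing TRPV1 were dye-loaded with Fluo-8 and read kinetically: 10 s baseline, 3 min after compound (agonist portion), then 2 min after EC20 capsaicin (allosteric enhancer portion). Calcium-bound dye fluorescence at 480/520 nm.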
PINK1 expr mod = A Quantitative High throughput Screen to Identify Chemical Modulators of PINK1 Expression | PINK1 immunofluorescence, high-content cytometry, 24 h | Potency, µM (highest dose often 76.6 µM), for inactives: at the highest dose activation (PINK1 increase), usual class: activators | 410,000 tested, 0.2% active | AID 624263, 2012; active = well fitted activation curve with a large enough effect; inconclusive = small, poorly fitted or top-dose-only effect; inactive = flat fitted curve, though single readings scatter; cell line not stated here;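 note: potency is the fitted concentration of half-maximal effect; % of control where 0% means no effect; nearly all actives have a fitted effect of over 65% in size; a mitochondrial uncoupler was the plate control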
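Cells are seeded, rested 12 hours, then given compound at five concentrations or DMSO for 24 hours. After fixation, blocking and antibody staining, PINK1 amount and mitochondrial localization are scored; CCCP serves as control.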
CtBP-E1A inh = qHTS Assay for Inhibitors of the CtBP/E1A Interaction; CtBP / adenovirus E1A interaction (AlphaScreen); AlphaScreen GST-E1A/His-CtBP binding, 1536-well; stronger effect = lower value; control for the full effect not named in the record; activity change, % (concentration not given with the values); 340,000 tested, 0.49% active; AID 651724, 2012; in the data active means activity change below about -65%; inconclusive means about -30% to -65%; inactive means above about -30%; note: % is set by controls: 0 for no effect and ±100 for the full control effect
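Steps: dispense buffer (Tris pH 8.0, NaCl 300 mM, TCEP 1 mM, BSA, Tween 20); add 5X protein mix (GST-E1A, His-CtBP, 125 nM each); pin 23 nL compound; 2 h at 37 °C, dark; add 5X beads (50 ug/mL); 1 h; read.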
Sfp PPTase inh = qHTS Assay for Inhibitors of Bacillus subtilis Sfp phosphopantetheinyl transferase (PPTase); AID 1490, 2009; 4'-phosphopantetheinyl transferase ffp (Bacillus subtilis), Q9F4F7; 310,000 tested, 3.5% active; Biochemical Sfp PPTase activity, qHTS; Potency, µM, for the others: max response, negative = inhibition, usual class: inhibitors; active = well fitted inhibition curve with a large enough effect; inconclusive = small, poorly fitted or top-dose-only effect, or another doubt; inactive = no such curve, though single readings can be large or run the other way;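 note: the enzyme is Sfp with the accession as filed and its product quenches rhodamine fluorescence; potency is the fitted concentration of half-maximal effect; 0% = enzyme reaction without inhibitor and -100% = no enzyme wells; top concentration of the series not given in the record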
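Sfp 15 nM + cpd, 15 min RT; start w/ rhodamine-CoA 5 uM, BHQ-2-YbbR 12.5 uM (final); 50 mM Hepes pH 7.6, 10 mM MgCl2, 0.01% NP-40, 0.01% BSA; read 525/598 nm at 0 and 30 min.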
D2 agonist = Beta-Arrestin HTS for Positive Allosteric Modulators of the Human D2 Dopamine Receptor: Agonists; AID 624465, 2012; activation, % (no concentration beside the values); D(2) dopamine receptor (Homo sapiens), P14416; DiscoveRx PathHunter D2 beta-arrestin, luminescence, 90 min; 100% = 57 uM dopamine signal; 360,000 tested, 0.084% active; in the data active = activation above about 40%; inconclusive = about 15% to 40%; inactive = below about 15%; note: compound concentration not given in the record; the text of the record calls up to 30% inactive
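DiscoveRx PathHunter D2 beta-arrestin cells (2,100/well) attached overnight, then compound-stimulated 90 min at 37 C in HBSS/10 mM HEPES/0.1% Tween-20 buffer; beta-galactosidase complementation read by luminescence after 1 h at ambient temperature. Dopamine 57 uM final (EC100) as control.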
Six1-Eya2 inh = qHTS Assay for Inhibitors of the Six1/Eya2 Interaction | activity change, % (concentration not given with the values) | 360,000 tested, 0.56% active | Homeobox protein SIX1 (Homo sapiens) + Protein phosphatase EYA2 (Homo sapiens), … | AlphaScreen GST-Six1/His-Eya2 binding, biochemical; stronger effect = lower value; control for the full effect not named in the record; in the data active = activity change below about -65%; inconclusive = about -30% to -65%; inactive = above about -30%; note: % is set by controls: 0 for no effect and ±100 for the full control effect
Target sequence (O00167 whole entry, looked up): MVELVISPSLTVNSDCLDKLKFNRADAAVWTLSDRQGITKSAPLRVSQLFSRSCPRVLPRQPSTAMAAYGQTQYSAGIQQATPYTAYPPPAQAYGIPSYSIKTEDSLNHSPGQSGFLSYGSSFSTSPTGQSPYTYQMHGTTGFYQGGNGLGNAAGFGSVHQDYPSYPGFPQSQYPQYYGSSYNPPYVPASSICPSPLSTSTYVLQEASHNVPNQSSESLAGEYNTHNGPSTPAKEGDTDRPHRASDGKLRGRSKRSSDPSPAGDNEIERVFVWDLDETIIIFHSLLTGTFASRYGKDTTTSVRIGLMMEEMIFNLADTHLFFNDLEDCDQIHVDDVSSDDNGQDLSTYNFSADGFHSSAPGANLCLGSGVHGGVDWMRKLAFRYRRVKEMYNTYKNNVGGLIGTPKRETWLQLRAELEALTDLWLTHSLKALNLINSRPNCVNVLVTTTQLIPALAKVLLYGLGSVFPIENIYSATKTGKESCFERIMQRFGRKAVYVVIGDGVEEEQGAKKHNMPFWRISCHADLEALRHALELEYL
Target sequence (Q15475 whole entry, looked up): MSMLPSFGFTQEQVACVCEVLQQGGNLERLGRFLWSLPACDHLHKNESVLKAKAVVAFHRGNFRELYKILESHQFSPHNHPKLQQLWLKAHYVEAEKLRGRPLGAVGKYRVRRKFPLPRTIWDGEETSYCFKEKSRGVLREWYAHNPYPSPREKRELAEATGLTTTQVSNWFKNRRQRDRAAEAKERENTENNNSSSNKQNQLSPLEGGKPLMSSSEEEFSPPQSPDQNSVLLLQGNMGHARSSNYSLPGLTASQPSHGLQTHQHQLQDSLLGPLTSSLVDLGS
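Homogeneous AlphaScreen proximity assay pairing GST-Six1 with His-tagged Eya2 (added as 5X mix: 250 nM and 500 nM) in 50 mM Tris pH 8.0, 300 mM NaCl, 1 mM TCEP. Glutathione donor and nickel acceptor beads; 1 h, 37 °C, dark.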
* hit, by the source's call; [ ] = dose if it differs, or a comment.

`Cc1cc(NC(=O)CSC2=Nc3ccccc3C3=NC(Cc4ccccc4)C(=O)N23)n[nH]1` (stereo unspecified) gave D2 potentiator -19.5, TRPV1 potentiator -0.1, PINK1 expr mod -0.9%, CtBP-E1A inh -2.0, Sfp PPTase inh 12.6%, D2 agonist -2.1 and Six1-Eya2 inh -4.7.
CCn1c2ccccc2c2cc(NC(=O)c3cc(OC)c(OC)c(OC)c3)ccc21 was read as D2 potentiator -10.3, TRPV1 potentiator 8.6, PINK1 expr mod 7.1%, CtBP-E1A inh 8.8, Sfp PPTase inh 16.7%, D2 agonist -5.3 and Six1-Eya2 inh -11.2.
COc1nc(OC)nc(N2CCC(C(=O)NC3CCCCCC3)CC2)n1 was read as D2 potentiator 2.8, TRPV1 potentiator 4.0, PINK1 expr mod 2.0%[38.3 µM], CtBP-E1A inh 0.1, Sfp PPTase inh 24.0%, D2 agonist -0.6 and Six1-Eya2 inh 0.4.
Screening CNC(=O)c1c(O)c2cccc3c2n(c1=O)CCC3 returned D2 potentiator -8.0, TRPV1 potentiator 17.1, PINK1 expr mod -1.3%, CtBP-E1A inh -24.9, Sfp PPTase inh -8.2%, D2 agonist 2.4 and Six1-Eya2 inh 23.2.
`c1ccc(N2CCN(c3nc(NCc4ccco4)c4ccccc4n3)CC2)cc1` gave D2 potentiator -40.1, TRPV1 potentiator 21.0, PINK1 expr mod inconclusive, CtBP-E1A inh -13.8, Sfp PPTase inh 31.6µM*, D2 agonist -4.2 and Six1-Eya2 inh -21.6.
Screening CC(=O)N(C(C)=O)N1C(=O)C2C3c4ccccc4C(c4ccccc43)C2C1=O (stereo unspecified) returned D2 potentiator -1.2, TRPV1 potentiator -0.8, PINK1 expr mod 0.9%, Sfp PPTase inh 0.8%, D2 agonist -1.5 and Six1-Eya2 inh 2.0.
For Cc1cccc(N2C(=O)CC(SC(N)=Nc3ccccc3)C2=O)c1 (stereo unspecified) the results were D2 potentiator -21.7, TRPV1 potentiator 9.2, PINK1 expr mod 4.0%, Sfp PPTase inh 10.8%, D2 agonist -4.1 and Six1-Eya2 inh -7.2.
COc1ccc(NS(=O)(=O)c2cccc(C(=O)NNC(=O)c3cccc(NC(C)=O)c3)c2)cc1 was read as D2 potentiator -20.3, TRPV1 potentiator 2.9, PINK1 expr mod -0.5%, CtBP-E1A inh -0.3, D2 agonist -0.9 and Six1-Eya2 inh 3.6.
Screening COc1ccccc1/C=C/C(=O)OCCN1CCOCC1 returned D2 potentiator -8.8, TRPV1 potentiator -11.4, PINK1 expr mod 0.0%, CtBP-E1A inh -0.8, Sfp PPTase inh -4.7%, D2 agonist -4.2 and Six1-Eya2 inh 6.8.
For COc1ccc(C(C(=O)NC(C)(C)C)N(C(=O)CCC(=O)Nc2cc(C)on2)c2cc(C)cc(C)c2)cc1 (stereo unspecified) the results were D2 potentiator -7.6, TRPV1 potentiator 19.7, PINK1 expr mod 3.2%, CtBP-E1A inh -14.8, Sfp PPTase inh 11.5%, D2 agonist -2.4 and Six1-Eya2 inh -12.5.
Screening O=c1c2ccccc2[nH]c(=S)n1CC1CCCO1 (stereo unspecified) returned D2 potentiator -12.9, PINK1 expr mod -0.3%, CtBP-E1A inh -0.3, D2 agonist -1.2 and Six1-Eya2 inh 6.3.
`OCCCNCc1ccc(N(c2ccccc2)c2ccccc2)cc1` gave D2 potentiator -8.5, TRPV1 potentiator 2.0, PINK1 expr mod -2.0%, CtBP-E1A inh -5.9, Sfp PPTase inh -11.4%, D2 agonist -4.2 and Six1-Eya2 inh 9.2.
Screening Cc1ccc2cc(/C=C3\N=C(c4ccccc4)OC3=O)c(N3CCOCC3)nc2c1 returned D2 potentiator 1.3, TRPV1 potentiator 10.1, PINK1 expr mod 4.1%, CtBP-E1A inh -2.4, Sfp PPTase inh 19.1%, D2 agonist -4.4 and Six1-Eya2 inh 0.1.
For COC(=O)c1cc(C(=O)OC)[nH]n1 the results were D2 potentiator -4.4, TRPV1 potentiator -5.3, PINK1 expr mod 0.2%, Sfp PPTase inh inconclusive, D2 agonist 4.5 and Six1-Eya2 inh 1.9.
Screening COc1ccc(/C=C(/NC(=O)c2ccccc2)c2nc3ccccc3[nH]2)cc1OC returned D2 potentiator -14.7, TRPV1 potentiator 7.1, PINK1 expr mod 0.2%, CtBP-E1A inh 2.4, Sfp PPTase inh -3.2%, D2 agonist -0.6 and Six1-Eya2 inh 1.6.
O=C(Nc1ccc(N2CCOCC2)cc1N1CCOCC1)c1ccccc1 was read as D2 potentiator -15.9, PINK1 expr mod 0.5%, CtBP-E1A inh 10.3, D2 agonist -3.7 and Six1-Eya2 inh 1.9.
Screening Cc1ccc(S(=O)(=O)N2CCN(C(=O)COC(=O)CCOc3ccccc3C)CC2)cc1 returned D2 potentiator -14.2, TRPV1 potentiator 9.8, PINK1 expr mod -1.7%, CtBP-E1A inh 2.8, D2 agonist 1.6 and Six1-Eya2 inh -0.2.
CCNC(=O)CN(c1ccc(Br)c(C)c1)S(C)(=O)=O was read as D2 potentiator -4.4, TRPV1 potentiator 2.0, PINK1 expr mod 6.8%, CtBP-E1A inh 0.0, Sfp PPTase inh 11.9%, D2 agonist -2.8 and Six1-Eya2 inh 1.0.
For CCOC(=O)CSc1nnc(CNC(=O)c2ccc(S(=O)(=O)N3CCOCC3)cc2)n1C the results were D2 potentiator -4.6, TRPV1 potentiator 4.3, PINK1 expr mod -1.0%, CtBP-E1A inh -2.6, Sfp PPTase inh 14.6%, D2 agonist -4.0 and Six1-Eya2 inh 8.5.
Screening CC(c1ccccc1)N1CC(C(=O)N2CCN(c3ccc(F)cc3)CC2)CC1=O (stereo unspecified) returned D2 potentiator -6.0, TRPV1 potentiator 10.8, PINK1 expr mod -5.1%[38.3 µM], CtBP-E1A inh 3.1, Sfp PPTase inh 22.1%, D2 agonist -0.6 and Six1-Eya2 inh 2.3.
For NNC(=O)[C@@H]1C[C@@H]1c1ccccc1 the results were D2 potentiator 1.9, TRPV1 potentiator 15.8, PINK1 expr mod -0.9%, CtBP-E1A inh -5.3, Sfp PPTase inh -1.7%, D2 agonist -0.3 and Six1-Eya2 inh 3.9.
Screening C/[N+]([O-])=C\c1coc2ccccc2c1=O returned D2 potentiator -10.6, TRPV1 potentiator -0.3, PINK1 expr mod 1.1%, CtBP-E1A inh -12.3, Sfp PPTase inh 16.5%, D2 agonist -4.6 and Six1-Eya2 inh -18.9.
CC(=O)Nc1cc(-c2ccncc2)cn2c(-c3ccccc3)cnc12 was read as D2 potentiator 3.1, PINK1 expr mod 0.2%, CtBP-E1A inh -3.6, D2 agonist 3.3 and Six1-Eya2 inh -6.5.
Screening C[C@H](CO)N1C[C@H](C)[C@@H](CN(C)C(=O)Nc2ccc(F)cc2)Oc2ncc(-c3ccc(F)cc3)cc2C1=O returned D2 potentiator 1.9, PINK1 expr mod 0.7%, CtBP-E1A inh -8.3, D2 agonist -0.6 and Six1-Eya2 inh -2.2.
CC(O)CNCCOc1ccccc1OCc1ccccc1 (stereo unspecified) was read as D2 potentiator -9.1, TRPV1 potentiator -10.8, PINK1 expr mod 0.5%, CtBP-E1A inh 1.7, Sfp PPTase inh -25.7%, D2 agonist -8.8 and Six1-Eya2 inh -13.5.
`O=C1CSC(c2ccccc2)N1Cc1ccccn1` (stereo unspecified) gave D2 potentiator -1.2, TRPV1 potentiator 3.4, PINK1 expr mod 0.9%, CtBP-E1A inh -0.6, Sfp PPTase inh 2.6%, D2 agonist 0.3 and Six1-Eya2 inh 7.6.
For CCOc1ccccc1C(=O)OCC(=O)Nc1ccc(N2CCCCC2)cc1 the results were D2 potentiator -24.6, TRPV1 potentiator 2.3, PINK1 expr mod -1.9%, CtBP-E1A inh inconclusive, Sfp PPTase inh -25.4%, D2 agonist -1.7 and Six1-Eya2 inh inconclusive.
Screening COc1ccccc1NC(=O)CN(Cc1ccco1)C(=O)c1ccc(-n2nc(C)cc2C)cc1 returned D2 potentiator -0.5, TRPV1 potentiator 24.9, PINK1 expr mod 4.7%[38.3 µM], CtBP-E1A inh -3.8, Sfp PPTase inh -1.9%, D2 agonist 0.9 and Six1-Eya2 inh -2.3.
CCCCCC(=O)Nc1ccc(-c2cn3cccnc3n2)cc1 was read as D2 potentiator 1.1, TRPV1 potentiator 2.0, PINK1 expr mod 0.7%, CtBP-E1A inh 0.7, Sfp PPTase inh 9.0%, D2 agonist 5.2 and Six1-Eya2 inh 4.1.
CC/C(=N\NC(=O)c1cc(C)nc2ccccc12)c1ccc(C)s1 was read as D2 potentiator -5.7, TRPV1 potentiator 12.0, PINK1 expr mod 9.4%, CtBP-E1A inh -11.7, Sfp PPTase inh 4.4%, D2 agonist -5.5 and Six1-Eya2 inh -23.1.
CCC1CCCCN1C(=O)CSc1nc(N)c(NC(=O)c2ccco2)c(=O)[nH]1 (stereo unspecified) was read as D2 potentiator -4.4, TRPV1 potentiator -14.4, PINK1 expr mod 1.0%, CtBP-E1A inh -5.7, Sfp PPTase inh 1.2%, D2 agonist -1.7 and Six1-Eya2 inh -2.5.
Cc1c(C)c(C)c2[nH]c(-c3ccc4c(c3)OCO4)nc2c1C was read as D2 potentiator -18.4, TRPV1 potentiator -1.1, PINK1 expr mod 3.0%, CtBP-E1A inh -0.1, Sfp PPTase inh 2.4%, D2 agonist -2.1 and Six1-Eya2 inh -26.2.
O=C(NCc1ccc(F)cc1)C1CCN(C(=O)NCc2ccccc2)CC1 was read as D2 potentiator -3.1, TRPV1 potentiator -10.6, PINK1 expr mod 0.6%, CtBP-E1A inh 13.4, Sfp PPTase inh -4.1%, D2 agonist 0.0 and Six1-Eya2 inh 4.2.

Source: PubChem BioAssay
